Screening data (PubChem)
MbtI inh = blocks the Mycobacterium tuberculosis siderophore enzyme MbtI. P9WFX0. purified MbtI enzyme, fluorescence intensity read-out. inhibition, %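 (about 17 µg/mL by stock and volumes)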. hit rate 0.89% among 100,000;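 active = above 50% in both replicates, above 80% if mildly self-fluorescent; inactive = the rest, strongly fluorescent compounds included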;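 also: 0% = mean of negative and 100% = mean of positive controls; one replicate is shown; some compounds called inactive have numbers as strong as hits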
Target sequence (P9WFX0 whole entry, looked up): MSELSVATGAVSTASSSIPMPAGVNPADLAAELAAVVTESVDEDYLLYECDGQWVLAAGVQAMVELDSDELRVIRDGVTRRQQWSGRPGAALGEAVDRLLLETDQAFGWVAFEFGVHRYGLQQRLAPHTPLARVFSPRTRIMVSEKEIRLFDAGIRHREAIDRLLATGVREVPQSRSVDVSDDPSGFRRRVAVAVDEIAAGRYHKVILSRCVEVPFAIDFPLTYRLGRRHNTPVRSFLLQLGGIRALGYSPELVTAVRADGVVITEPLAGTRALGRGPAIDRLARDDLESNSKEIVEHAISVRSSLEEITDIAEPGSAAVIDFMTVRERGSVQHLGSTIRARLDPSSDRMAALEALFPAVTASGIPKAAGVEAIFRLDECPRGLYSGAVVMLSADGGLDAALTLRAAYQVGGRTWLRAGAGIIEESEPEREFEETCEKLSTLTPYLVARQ
PV pol inh = poliovirus RNA polymerase inhibition. P03300. poliovirus polymerase elongation, fluorescence polarization; stronger effect = lower value. % elongation, % (compound at 16.7 µg/mL). hit rate 0.66% among 150,000. AID 588519; in the data active = % elongation below about 90%; also: some results filed as inactive read as strong as hits
MenB inh = Mtb MenB enzyme inhibition; inhibition, %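 (about 12 µg/mL by stock and volumes)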; hit rate 0.43% among 100,000; MenB enzyme assay, absorbance read-out; some hits fall short of the stated cut;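 active = mean of two replicates above 30%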;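 also: 0% = no compound and 100% = wells with inactive enzyme; the first replicate is given; strong numbers were not always called active; inactives centre near -10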
Target sequence (P9WNP5 whole entry, looked up): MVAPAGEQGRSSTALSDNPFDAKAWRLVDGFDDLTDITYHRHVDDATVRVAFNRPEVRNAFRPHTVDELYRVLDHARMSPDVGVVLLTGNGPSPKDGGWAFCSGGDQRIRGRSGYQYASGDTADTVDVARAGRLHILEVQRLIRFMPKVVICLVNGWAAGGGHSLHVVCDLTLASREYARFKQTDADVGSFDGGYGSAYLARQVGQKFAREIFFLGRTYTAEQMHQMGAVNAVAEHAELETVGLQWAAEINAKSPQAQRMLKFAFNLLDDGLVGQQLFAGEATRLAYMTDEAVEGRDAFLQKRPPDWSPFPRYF
PV pol inh intensity = recorded beside PV pol inh, whose call it bears; % elongation; measured here: total intensity read-out; formula for this scale not given here;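 total fluorescence in place of polarization; lower means less elongation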
The depositor's hits bear a star; i = inactive; nt = not tested or not shown; & = joins results of further samples.

SMILES	MbtI inh	PV pol inh	PV pol inh intensity	MenB inh
CC(=O)N1CCc2c(sc(NC(=O)c3ccco3)c2C(N)=O)C1	-2.5	104.0	103.0	-25.4
N#Cc1ccsc1NC(=O)CSc1ccccn1	-0.7	103.0	115.0	-11.1
CCOc1ccc(CCC(=O)O)cc1	-3.1	107.0	105.0	-6.9
CCOC(=O)CSc1nc(Nc2ccccc2)c2cnc(N3CCOCC3)nc2n1	-3.9	98.0	102.0	0.6
COCCNC(=O)c1ccc2c(=O)n3c(nc2c1)CCCCC3	10.6	99.0	104.0	9.9
Cc1cccc(-n2cnc3cc(C(=O)NC4CCCC4)ccc32)c1	5.7	101.0	102.0	-3.7
O=C(Cc1n[nH]c(=O)c2ccccc12)OCc1nnc(-c2ccc(Cl)cc2)o1	8.2	98.0	101.0	-7.1
O=C(Nc1cc(F)ccc1F)c1cc(-c2ccc(F)cc2)nc2ccccc12	36.0	101.0	102.0	-5.2
Cc1nn(C(C)(C)C)c2c1C(c1ccncc1)C1=C(CCCC1=O)N2 (configuration not stated)	104.2	97.0	103.0	-2.7
CCc1ccc(NC(=O)CC(NCc2ccco2)C(=O)O)cc1 (configuration not stated)	-7.0	106.0	104.0	-29.1
Cc1n[nH]c(C)c1S(=O)(=O)N1CCCC(C(=O)NC2CCCCC2)C1 (configuration not stated)	5.4	102.0	104.0	-13.3
c1ccc(NCCCNc2ccccc2)cc1	-29.2	100.0	102.0	-25.1
CCn1ccnc1C(O)c1ccc(OC)cc1 (configuration not stated)	nt	105.0	111.0	4.6
O=C1NC(=O)C(=Cc2ccc(Br)cc2)C(=O)N1	nt	100.0	102.0	-38.6
Cc1ccc(-c2nnn(CC(=O)c3ccc(Cl)s3)n2)cc1	1.9	123.0	119.0	-24.7
Cc1cc(C(=O)COc2ccc(NC(=O)c3ccco3)cc2)c(C)n1Cc1ccccc1	-0.9	108.0	106.0	-23.4
CCN1CCCC1CN1CNC(=S)NC1 (configuration not stated)	-5.0	102.0	92.0	-17.3
O=C(O)C1C2CCCCC21 (configuration not stated)	-16.0	101.0	101.0	-3.3
O=C(CN1c2cccc3cccc(c23)S1(=O)=O)NCc1ccccc1	0.7	101.0	106.0	3.4
O=C(CNCc1ccco1)Nc1ccc(Oc2ccccc2)cc1	-10.1	102.0	103.0	-22.4
COc1ccc(/C=C/C(=O)NCC(C)C)cc1OC	-24.4	103.0	101.0	nt
Cc1onc(-c2c(Cl)cccc2Cl)c1C(=O)NC(=S)N1CCN(c2ccccn2)CC1	0.7	105.0	100.0	-72.7
COc1ccc(NC(=O)C(C)n2c(=O)cc(C)c3c(C)nn(-c4ccccc4)c32)cc1OC (configuration not stated)	-3.3	103.0	102.0	-11.4
Cc1cc(C(=O)N2CCc3ccccc3C2)c2ccccc2n1	5.2	101.0	107.0	-19.0
O=C(O)c1ccc(COc2ccc(Cl)cc2CO)cc1	6.0	101.0	99.0	1.1
Cc1ccccc1OCc1nc(C#N)c(NC(C)c2ccccc2)o1 (configuration not stated)	5.1	103.0	102.0	-23.2
Cc1nn(-c2ccccc2)c2c1N(C(=O)CCC(=O)N1CCOCC1)CCS2	-15.4	99.0	101.0	5.7
Cc1cc(C)c(/C=N/NC(N)=O)c(C)c1/C=N/NC(N)=O	-13.9	102.0	98.0	2.3
COC(=O)N/N=C/c1cccs1	30.1	100.0	101.0	10.3
COc1cc(/C=C/C2=NC(=O)C(C)(C)O2)ccc1O	-13.7	101.0	106.0	nt
CC1CC(c2ccccc2)n2ncnc2N1C(=O)c1ccccc1 (configuration not stated)	nt	104.0	101.0	-61.8
O=C(OCC(=O)N1CCN(c2ccccc2)CC1)c1ccc(-c2ccc(O)cc2)cc1	37.6	103.0	112.0	1.9
O=c1c2cc(N3CCOCC3)ccc2nc(SCc2ccc(F)cc2)n1CCc1ccccc1	3.3	102.0	99.0	-19.2
CC(=O)N1C(=S)NC(=O)/C1=C\c1ccccc1Cl	5.8	102.0	102.0	-6.5
O=C(CS(=O)(=O)Cc1ccccc1)Nc1ccccn1	7.4	101.0	102.0	36.3*
O=c1[nH]c(Cn2nnc(-c3ccccc3)n2)nc2ccccc12	1.0	109.0	118.0	-31.3

Record cards (already shown). Order of screens: MbtI inh | PV pol inh | PV pol inh intensity | MenB inh
Results for CC(=O)N1C(=S)NC(=O)/C1=C\c1ccccc1Cl : 5.8 | 102.0 | 102.0 | -6.5
Results for COC(=O)N/N=C/c1cccs1 : 30.1 | 100.0 | 101.0 | 10.3

Carrying on.
SMILES	MbtI inh	PV pol inh	PV pol inh intensity	MenB inh
Cc1ccc2nsnc2c1S(=O)(=O)NC(C)c1ccccc1 (configuration not stated)	0.8	100.0	101.0	4.3
O=C(N/N=C/CSc1nc2ccccc2o1)c1ccccc1	4.2	103.0	104.0	16.7
Cc1cccc(N2CCN(C(C)c3nc4ccccc4c(=O)[nH]3)CC2)c1C (configuration not stated)	4.3	103.0	99.0	-10.3
O=C(Cc1ccc(Cl)cc1)Oc1ccc2c(c1)OCO2	2.6	104.0	98.0	-33.9
CC(C)c1ccc2c(c1)c1c3n2CCN(CC(N)=O)C3CCC1 (configuration not stated)	33.1	100.0	102.0	-0.9
COc1ccc(-c2noc(-c3cccc(F)c3)n2)cc1	-8.1	102.0	106.0	-10.2
Nc1nc(SCc2cccc(Br)c2)n[nH]1	-10.3	103.0	104.0	-17.2
Cc1nn(-c2ccccc2)c2sc(C(=O)N(CC(=O)NC3CCCC3)C3CC3)cc12	-11.5	102.0	102.0	-14.2
COc1ccc(NC(=O)c2ccccc2OCc2ccccc2)cn1	20.4	101.0	103.0	nt
Cc1c(C(=O)O)oc2ccc(S(=O)(=O)N3CCCCCC3)cc12	-7.5	102.0	104.0	-9.0
O=C(COC(=O)c1ccc(Cl)nc1)c1cc2c3c(c1)CC(=O)N3CCC2	20.9	101.0	98.0	-19.3
CCc1oc2cc(OC(C)=O)ccc2c(=O)c1-c1ccc2c(c1)OCCO2	-2.8	101.0	101.0	-0.2

Exported comma-delimited: seven of the compounds above
mol,MbtI inh,PV pol inh,PV pol inh intensity,MenB inh
COc1cc(/C=C/C2=NC(=O)C(C)(C)O2)ccc1O,-13.7,101.0,106.0,nt
CC1CC(c2ccccc2)n2ncnc2N1C(=O)c1ccccc1 (configuration not stated),nt,104.0,101.0,-61.8
O=C(OCC(=O)N1CCN(c2ccccc2)CC1)c1ccc(-c2ccc(O)cc2)cc1,37.6,103.0,112.0,1.9
O=c1c2cc(N3CCOCC3)ccc2nc(SCc2ccc(F)cc2)n1CCc1ccccc1,3.3,102.0,99.0,-19.2
CC(=O)N1C(=S)NC(=O)/C1=C\c1ccccc1Cl,5.8,102.0,102.0,-6.5
O=C(CS(=O)(=O)Cc1ccccc1)Nc1ccccn1,7.4,101.0,102.0,36.3*
O=c1[nH]c(Cn2nnc(-c3ccccc3)n2)nc2ccccc12,1.0,109.0,118.0,-31.3

The results go on.
SMILES	MbtI inh	PV pol inh	PV pol inh intensity	MenB inh
COc1ccccc1OCCNC(=O)c1n[nH]c2ccccc12	-2.0	111.0	123.0	-24.5
CCn1c(SCC(=O)N2c3ccccc3Sc3ccccc32)nnc1-c1ccco1	-7.0	100.0	103.0	-16.9
CC1CN(c2ncnc3c2cnn3-c2ccccc2)CC(C)O1 (configuration not stated)	-3.3	101.0	100.0	-2.1
Cc1cc(C)c2c(N)c(C3=NC(C)(C)Cc4ccccc43)sc2n1	nt	107.0	116.0	-12.1
O=C(CCN1CCOCC1)NC=Nc1cccnc1	nt	99.0	98.0	-6.7
COc1ccc(CN(C(=O)CSc2nnc(-c3ccc(OC)c(OC)c3)o2)c2ccc(F)cc2)cc1	16.7	102.0	103.0	-5.6
COc1ccccc1-c1nnc(SCC(=O)c2cc(C)n(C)c2C)n1C	-8.8	106.0	110.0	2.7
Cc1oc(-c2ccccc2Cl)nc1CSCC(=O)N1CCCC1	5.4	102.0	98.0	-22.2
CN[C@H]1CC[C@@H](c2ccc(Cl)c(Cl)c2)c2ccccc21	-2.9	102.0	102.0	-10.1
N=C1SCC(=O)N1c1nccs1	nt	102.0	218.0	-13.4
O=C(O)c1ccccc1SC1CCS(=O)(=O)C1 (configuration not stated)	-6.8	109.0	105.0	-17.3
CSc1nnc(SC2CC(=O)N(c3cc(Cl)cc(Cl)c3)C2=O)s1 (configuration not stated)	5.9	108.0	107.0	-26.1
Cc1cc(C)nc(SCC(=O)OCC(=O)c2ccc3[nH]c(=O)[nH]c3c2)n1	0.0	101.0	100.0	1.7
C=CCN1C(=O)C(C(=O)Nc2ccc(C)cc2)C2CC1(C)Oc1ccccc12 (configuration not stated)	0.7	100.0	105.0	5.5
O=C(OCC(=O)N1CCOCC1)c1ccccc1Cc1ccccc1	-15.0	106.0	110.0	-5.9
O=C(CN1CCOCC1)Nc1ncc(Cc2ccc(Cl)cc2)s1	2.8	nt	nt	-12.7
Cc1nsc(N)c1C(=O)OCC(=O)Nc1ccc(F)cc1	1.2	107.0	106.0	-0.8
O=C(O)CCCc1nnc2c(=O)n(-c3ccc(Cl)cc3)ccn12	4.2	100.0	101.0	-23.3
CCOC(=O)C1C2C=CC3(CN(Cc4ccc(C)cc4)C(=O)C13)O2 (configuration not stated)	nt	109.0	104.0	-5.5
O=C(O)c1nccnc1C(=O)Nc1ccc(N2CCOCC2)cc1	5.3	101.0	96.0	-10.2
CC(C)NC(=O)c1ccccc1NS(=O)(=O)Cc1ccccc1	-227.3	99.0	101.0	-18.0
CCCC(C(=O)O)n1cnnn1 (configuration not stated)	-6.2	101.0	102.0	-10.1
CC(=O)N1CCN(c2ncnc3nc[nH]c23)CC1	-1.9	105.0	100.0	-2.4
COC(=O)c1ccc(CSc2nc(C)nc3sc4c(c23)CCCC4)o1	7.5	nt	nt	12.6
CCN1C(=C(C#N)C#N)C=Cc2cc(C)ccc21	-14.2	102.0	105.0	-57.9
CC1(C)C=Cc2c(c3ccccc3[nH]c2=O)O1	-0.3	101.0	102.0	-25.9
CC1=CC(=O)C(C(=O)/C=C/c2ccc(N3CCCCC3)cc2)C(=O)O1 (configuration not stated)	2.8	46.0	245.0	-12.4
Nc1ccnn1Cc1ccsc1	7.6	102.0	109.0	4.4
O=C(COC(=O)c1ccccc1NCc1ccco1)c1ccc2[nH]c(=O)[nH]c2c1	-196.0	44.0*	51.0*	0.7
O=C1NCCCCC1NC(=S)Nc1ccccc1 (configuration not stated)	2.2	97.0	112.0	-16.1
CCOC(=O)C1CCCN(Cc2ccc(CC)cc2)C1 (configuration not stated)	-14.5	100.0	103.0	5.0
COc1cccc(-c2nc(CN3CCC(=O)CC3)cs2)c1	2.6	114.0	123.0	-12.1
CCNC(=S)N1CCN(CCN=Cc2c(O)[nH]c(=O)[nH]c2=O)CC1	6.5	100.0	103.0	-7.8
O=Nc1c(O)n(CN2CCCCC2)c2ccccc12	5.3	102.0	98.0	-1.9
CN1C(=O)/C(=C/c2ccccc2OCc2ccc(C(=O)O)cc2)NC1=S	0.4	101.0	97.0	-127.3
COC(=O)CCCCC1SCC(NC(=O)c2ccccc2)C1OC(C)=O (configuration not stated)	-12.9	104.0	102.0	-12.1
COc1ccc(-c2noc(N3CCC(C(N)=O)CC3)n2)cc1OC	-3.0	102.0	103.0	2.5
C[C@]12CC[C@@H]3c4ccc(O)cc4CC[C@H]3[C@@H]1CC[C@@H]2O	-9.1&-22.4	101.0&102.0&99.0	106.0&104.0&99.0	4.1&-2.2
Cc1cc(C(=O)CSc2ncn[nH]2)c(C)n1CC(F)(F)F	2.5	106.0	101.0	-1.4
Cc1ccc(/C(O)=C2\C(=O)C(=O)N(C)C2c2ccccc2)cc1 (configuration not stated)	nt	104.0	102.0	-19.7
O=c1[nH]c2ccc(N=Cc3cc(Br)c(O)c(Br)c3O)cc2[nH]1	48.9	101.0	103.0	i
O=C(COC(=O)C12CC3CC(CC(C3)C1)C2)Nc1cc(F)ccc1F	-13.7	101.0	105.0	nt
NC(=O)c1nn(CC(=O)N2CCCN(S(=O)(=O)c3ccc(F)cc3)CC2)c(=O)c2ccccc12	14.6	94.0	100.0	3.2
O=C(c1cc(-c2ccccc2O)no1)N1CCOCC1	-3.0	102.0	104.0	-13.9
C=CCNc1sc(C(=O)C(C)(C)C)c(N)c1C#N	26.6	104.0	110.0	-29.7
CSc1ncnc2sc(-c3ccccc3)cc12	-44.5	98.0	102.0	-37.9
CCCCc1nc(OCC(=O)c2ccccc2)c(C#N)c2c1COC(C)(C)C2	nt	108.0	109.0	-11.7
CCOC(=O)c1[nH]c(C(=O)O)c(C(=O)OCc2ccccc2)c1CCC(=O)O	nt	102.0	101.0	-15.3
Cc1csc(SCC(=O)c2ccc(S(=O)(=O)N3CCCCC3)cc2)n1	-5.8	106.0	109.0	4.9
Cc1ccc(N(C(=O)NC2CCCCC2)C2=NCCCCC2)cc1	-2.1	102.0	105.0	-3.2
O=C(/C=C/c1cccs1)NCCCN1CCOCC1	6.3	102.0	108.0	nt
CC1(C)Cc2ccccc2-c2nc(-c3ccccc3)n(CCO)c(=O)c21	-1.6	102.0	102.0	-13.1
CCN(Cc1ccc(Cl)s1)Cn1c(CO)nc2ccccc21	-3.3	104.0	94.0	-30.1
CC(C)(C)C1CCC(C(=O)OCC(=O)N2CCOCC2)CC1 (configuration not stated)	-15.8	97.0	99.0	nt
N#CC(C#N)=Cc1ccc(OC(F)F)cc1	-8.9	98.0	104.0	-61.7
CC(C)(CO)NC(=S)NC1CC1	3.9	104.0	103.0	-13.5
CCOC(=O)N1CCN(C(=O)Cn2cnc3c(nnn3-c3cccc(Cl)c3)c2=O)CC1	2.9	102.0	99.0	-5.4
NC(=O)NO	-13.4	101.0	101.0	3.5
